E coli growth – blocks Escherichia coli growth | OD600, 23 h; stronger effect = lower value | OD600 absorbance (test concentration not listed) | 0.21% of 330,000 active | AID 1053175;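 active means OD600 absorbance below the run mean of sample wells minus 3.6 SD, in any replicate, cut at about 0.56 in these data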;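 further: stock transfer was 300 nL into about 60 µL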
LANA-H2B inh – blocks KSHV LANA binding to histone H2A/H2B; 0.6% of 320,000 active; AID 2629; cell-free LANA-H2A/H2B peptide, fluorescence polarization; inhibition, % (concentration not given with the values); Q9QR71; in the data active means inhibition mostly above about 10%, no sharp cut-off; inactive means mostly below about 6.7%;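 further: stock transfer was 7.5 nL into about 10 µL; 0% = median of vehicle wells and 100% = median of positive control wells; one replicate is shown; the record names a cut of 25% in any replicate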
HNF4A DNA FP – change in binding of human HNF4 alpha to DNA; 0.3% of 360,000 active; AID 1224865; activity change, % at 10 µM; HNF4a-FITC DNA binding, fluorescence polarization, 1 h; P41235; in the data active means activity change above about 30%, passing the limit was not always enough;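 further: controls were the assay level and a saturating level of protein; the project sought stronger binding though the title names inhibitors; some compounds called inactive have numbers as strong as hits; positive values seem to mean higher polarization but the record does not say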
Target sequence (P41235 whole entry, looked up): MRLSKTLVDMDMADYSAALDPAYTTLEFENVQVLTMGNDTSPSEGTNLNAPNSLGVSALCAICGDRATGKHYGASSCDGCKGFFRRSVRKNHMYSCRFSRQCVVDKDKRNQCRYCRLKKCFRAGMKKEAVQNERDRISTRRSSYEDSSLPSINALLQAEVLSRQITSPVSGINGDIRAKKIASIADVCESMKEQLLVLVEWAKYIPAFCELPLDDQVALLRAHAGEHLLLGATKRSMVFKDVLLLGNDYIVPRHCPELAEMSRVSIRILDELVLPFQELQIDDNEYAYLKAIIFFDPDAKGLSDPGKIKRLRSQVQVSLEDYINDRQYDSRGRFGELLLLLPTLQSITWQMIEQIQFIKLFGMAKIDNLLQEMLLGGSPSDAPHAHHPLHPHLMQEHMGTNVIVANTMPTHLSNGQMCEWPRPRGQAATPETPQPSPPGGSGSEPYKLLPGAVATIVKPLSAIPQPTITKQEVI
UCH37 inh – human UCH37 deubiquitinating enzyme inhibition | purified proteasome/UCH37, Ub-AMC cleavage fluorescence | inhibition, % (test concentration not listed) | 0.33% of 330,000 active | Q9Y5K5;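 active means mean of two replicates above 20%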;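 further: 0% = compound-free wells with enzyme and 100% = wells lacking proteasome; stock transfer was 100 nL into about 20 µL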
Target sequence (Q9Y5K5 whole entry, looked up): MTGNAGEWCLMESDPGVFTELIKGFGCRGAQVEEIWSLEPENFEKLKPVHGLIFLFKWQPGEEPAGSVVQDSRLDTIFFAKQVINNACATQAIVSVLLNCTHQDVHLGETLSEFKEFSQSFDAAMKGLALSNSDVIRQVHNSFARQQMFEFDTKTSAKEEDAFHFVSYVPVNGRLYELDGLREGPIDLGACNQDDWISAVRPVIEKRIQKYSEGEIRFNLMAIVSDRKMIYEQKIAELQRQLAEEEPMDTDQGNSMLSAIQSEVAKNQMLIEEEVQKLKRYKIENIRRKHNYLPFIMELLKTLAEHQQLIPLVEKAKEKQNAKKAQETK
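Material: human UCH37 enzyme supplied as purified proteasome complex / Amount: 0.15 nM proteasome as dispensed / Buffer or medium: pH 7.4 Tris-HCl (50 mM) with ovalbumin, ATP-MgCl2, DTT / Times: preincubation 30 min, reaction 25 min, room temperature / Technique: AMC fluorescence from Ub-AMC cleavage, excitation 355 nm, emission 460 nm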
B2AR ag – agonists of human beta-2 adrenergic receptor inducing internalization | Am2.2-beta2AR cells, FAP receptor internalization, flow cytometry; reference of the scale not given here | response, % (concentration not given with the values) | 0.43% of 340,000 active;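 active means response above a set limit, near 3 SD of response in nonfluorescent compounds, cut at about 42% in these data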;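 further: stock transfer was 100 nL into about 11 µL; a reference agonist was the positive control; negative values mostly stem from fluorescent compounds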
ALR H2O2 inh – blocks human ALR sulfhydryl oxidase activity; P55789; purified ALR, DTT oxidation, H2O2 HRP-luminol luminescence; inhibition, % (concentration not given with the values); 3.8% of 290,000 active; AID 485317;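 active means mean and each replicate at 75% or more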;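 further: stock transfer was 7.5 nL into about 7.5 µL; 0% = neutral wells and 100% = wells with inactivated enzyme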
Target sequence (P55789 whole entry, looked up): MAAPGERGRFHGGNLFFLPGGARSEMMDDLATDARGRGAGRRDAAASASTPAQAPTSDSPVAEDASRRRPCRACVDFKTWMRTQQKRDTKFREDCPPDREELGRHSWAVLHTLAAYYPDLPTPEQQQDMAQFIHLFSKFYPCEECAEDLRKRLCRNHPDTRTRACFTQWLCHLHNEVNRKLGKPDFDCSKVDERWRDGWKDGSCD
FGF22 binding – FGF22 (human) thermal shift binding | AID 651658 | calls only at 9.99 µM | recombinant FGF22 thermal shift, SYPRO orange fluorescence; percent of sucrose octasulfate shift, DMSO zero | 1.5% of 340,000 active | Q9HCT0;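 active means melting point raised past a set limit in the mean and every replicate; three in four hits are not shown here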
* = called active by the depositor.

The first two records, to show the layout:
How did O=C(CSCc1c(F)cccc1Cl)Nc1ccccc1C(=O)N1CCOCC1 do in these assays?
E coli growth: 0.705; LANA-H2B inh: -6.8; HNF4A DNA FP: -3.0; UCH37 inh: 1.1; B2AR ag: -0.7; ALR H2O2 inh: 34.5; FGF22 binding: inactive

What do the screens show for `Cn1c(=O)c2c(nc(CN3CCc4ccccc4C3)n2CC(=O)c2ccccc2)n(C)c1=O`?
E coli growth: 0.669; LANA-H2B inh: -0.7; HNF4A DNA FP: 0.3; UCH37 inh: 6.1; B2AR ag: -3.6; ALR H2O2 inh: -0.3; FGF22 binding: inactive

The whole of this part, repeating the preview:
How did O=C(CSCc1c(F)cccc1Cl)Nc1ccccc1C(=O)N1CCOCC1 do in these assays?
E coli growth: 0.705; LANA-H2B inh: -6.8; HNF4A DNA FP: -3.0; UCH37 inh: 1.1; B2AR ag: -0.7; ALR H2O2 inh: 34.5; FGF22 binding: inactive

What do the screens show for `Cn1c(=O)c2c(nc(CN3CCc4ccccc4C3)n2CC(=O)c2ccccc2)n(C)c1=O`?
E coli growth: 0.669; LANA-H2B inh: -0.7; HNF4A DNA FP: 0.3; UCH37 inh: 6.1; B2AR ag: -3.6; ALR H2O2 inh: -0.3; FGF22 binding: inactive

How did COc1cccc(/C=C2\C(=O)C(=O)c3ccccc32)c1 do in these assays?
E coli growth: 0.694; LANA-H2B inh: 5.1; HNF4A DNA FP: 2.3; UCH37 inh: 5.3; B2AR ag: -7.3; ALR H2O2 inh: 99.7*

Results for CN1C(=O)N(CC(=O)N2CCN(S(=O)(=O)/C=C/c3ccccc3)CC2)C(=O)C12CCCCC2 ?
E coli growth: 0.663; LANA-H2B inh: 0.4; HNF4A DNA FP: 2.7; UCH37 inh: 0.4; B2AR ag: -12.5; FGF22 binding: inactive

Results for COCCCNC(=O)c1ccc(Cn2c(=O)[nH]c3ccccc3c2=O)cc1 ?
E coli growth: 0.779; LANA-H2B inh: -2.9; HNF4A DNA FP: 1.3; UCH37 inh: 3.4; B2AR ag: -2.4; ALR H2O2 inh: -13.0; FGF22 binding: inactive

What do the screens show for `COCCNC(=S)N(Cc1cccnc1)Cc1ccc(OC)c(OC)c1`?
E coli growth: 0.74; LANA-H2B inh: -8.2; HNF4A DNA FP: -2.9; UCH37 inh: 6.0; B2AR ag: 8.8; ALR H2O2 inh: -1.9

How did CC(=O)c1ccc(OCc2cc(C(=O)N(C)C(C)c3ccon3)no2)cc1 (centres undefined) do in these assays?
E coli growth: 0.717; LANA-H2B inh: 0.8; HNF4A DNA FP: -0.2; UCH37 inh: 0.8; B2AR ag: -5.3; ALR H2O2 inh: -3.3; FGF22 binding: inactive

What do the screens show for `CCN(CC)S(=O)(=O)N1CCC(C(=O)NCCC2=CCCCC2)CC1`?
E coli growth: 0.652; LANA-H2B inh: 2.2; HNF4A DNA FP: 1.3; UCH37 inh: -1.3; B2AR ag: -4.9; ALR H2O2 inh: -10.4; FGF22 binding: inactive

How did Nc1ncc(Br)cc1S(=O)(=O)NC1CCCCC1 do in these assays?
E coli growth: 0.714; LANA-H2B inh: 0.2; HNF4A DNA FP: 2.6; UCH37 inh: -1.6; B2AR ag: 7.4; ALR H2O2 inh: 0.4; FGF22 binding: inactive

What do the screens show for `Cc1ccc(C(=O)C2=C(O)C(=O)N(Cc3cccnc3)C2c2ccc(Cl)c(Cl)c2)o1` (centres undefined)?
E coli growth: 0.703; LANA-H2B inh: 2.4; HNF4A DNA FP: 0.5; UCH37 inh: 8.7; B2AR ag: -4.1; ALR H2O2 inh: 87.6*

What do the screens show for `COc1cc(NC(=O)c2c(OC)cccc2OC)ccc1NC(=O)c1cc2ccccc2o1`?
E coli growth: 0.686; LANA-H2B inh: -0.2; HNF4A DNA FP: -3.8; UCH37 inh: 2.6; B2AR ag: 6.3; ALR H2O2 inh: -0.7; FGF22 binding: inactive

How did CCOC(=O)c1c(S(=O)(=O)N(C)Cc2ccccc2)c(C)n(C)c1C do in these assays?
E coli growth: 0.708; LANA-H2B inh: 2.3; HNF4A DNA FP: 2.9; UCH37 inh: 3.1; B2AR ag: -1.6; ALR H2O2 inh: 1.0; FGF22 binding: inactive

Results for Cc1ccc(S(=O)(=O)N(C)C)cc1NC(=O)CCc1c[nH]c2ccccc12 ?
E coli growth: 0.71; LANA-H2B inh: 0.8; HNF4A DNA FP: -4.3; UCH37 inh: 1.5; B2AR ag: -2.1; ALR H2O2 inh: 1.8

What do the screens show for `CCOc1ccc(C(=O)CN2CCN(S(=O)(=O)c3ccc(F)cc3)CC2)cc1`?
E coli growth: 0.679; LANA-H2B inh: -5.0; HNF4A DNA FP: 3.5; UCH37 inh: 6.3; B2AR ag: 15.8; ALR H2O2 inh: 5.4

Results for O=S(=O)(N/N=C1\CC(c2ccccc2)Oc2ccccc21)c1ccccc1 (centres undefined) ?
LANA-H2B inh: 0.6; HNF4A DNA FP: 2.0; B2AR ag: 6.9; ALR H2O2 inh: 95.7*

Results for CCN(CC)CCn1c(=S)[nH]c2cc(C(=O)N3CC=C(c4ccccc4)CC3)ccc2c1=O ?
E coli growth: 0.702; LANA-H2B inh: 0.5; UCH37 inh: -0.5; ALR H2O2 inh: 11.1; FGF22 binding: inactive

What do the screens show for `COC(=O)c1cc(OC)c(OC)cc1NC(=S)Nc1cccc(C(C)=O)c1`?
E coli growth: 0.698; HNF4A DNA FP: 0.2; UCH37 inh: 6.3; B2AR ag: -7.8; ALR H2O2 inh: 4.7

How did C/C(=N\Nc1ccc([N+](=O)[O-])cc1)c1ccc2c(c1)OCO2 do in these assays?
LANA-H2B inh: 0.8; HNF4A DNA FP: 15.2; B2AR ag: -7.5; ALR H2O2 inh: -1.9

Results for COc1ccc(N2CSC3=C(C#N)C(c4cc(OC)ccc4OC)CC(=O)N3C2)c(OC)c1 (centres undefined) ?
E coli growth: 0.743; LANA-H2B inh: -1.7; HNF4A DNA FP: 11.5; UCH37 inh: 8.8; B2AR ag: 11.6; ALR H2O2 inh: 2.2

What do the screens show for `Cn1c(=O)cc(OCC(=O)NCCC2=CCCCC2)c2ccccc21`?
E coli growth: 0.636; LANA-H2B inh: -1.7; HNF4A DNA FP: -1.7; UCH37 inh: 1.8; B2AR ag: -20.2; ALR H2O2 inh: -3.5; FGF22 binding: inactive

Results for O=C(CCNC(=O)c1ccccc1Cl)Nc1nnc(C2CC2)s1 ?
E coli growth: 0.702; LANA-H2B inh: -2.4; HNF4A DNA FP: 2.7; UCH37 inh: 4.3; B2AR ag: 0.9; ALR H2O2 inh: -9.6; FGF22 binding: inactive

Results for O=C(O)c1[nH]nc2c1COc1ccccc1-2 ?
E coli growth: 0.815; LANA-H2B inh: -3.3; HNF4A DNA FP: -4.1; UCH37 inh: 0.6; B2AR ag: 1.9; ALR H2O2 inh: -6.9

What do the screens show for `O=C(CNS(=O)(=O)c1ccccc1)Nc1ccc(C(F)(F)F)cc1`?
E coli growth: 0.736; LANA-H2B inh: -2.8; HNF4A DNA FP: -1.1; UCH37 inh: 2.8; B2AR ag: 3.8; ALR H2O2 inh: -0.8

How did CC(=O)Nc1ccc(Oc2ccccc2)cc1 do in these assays?
E coli growth: 0.65; LANA-H2B inh: -3.2; HNF4A DNA FP: 1.4; UCH37 inh: -0.2; B2AR ag: -14.9; ALR H2O2 inh: 2.1; FGF22 binding: inactive

Results for O=C(O)c1ccc(Oc2ccc([N+](=O)[O-])cc2)c([N+](=O)[O-])c1 ?
E coli growth: 0.715; HNF4A DNA FP: -3.0; UCH37 inh: 4.3; B2AR ag: -1.8

What do the screens show for `Cc1nc2nc(-c3ccccc3)[nH]n2c(=O)c1C`?
E coli growth: 0.63; LANA-H2B inh: 1.5; HNF4A DNA FP: 2.4; UCH37 inh: 1.3; B2AR ag: -1.0; ALR H2O2 inh: 4.6; FGF22 binding: inactive

What do the screens show for `O=C(Nc1nnc(-c2ccncc2)o1)c1ccc(Br)s1`?
E coli growth: 0.591; LANA-H2B inh: -1.3; HNF4A DNA FP: -0.1; UCH37 inh: 0.9; B2AR ag: 1.9; ALR H2O2 inh: 1.1; FGF22 binding: inactive

Results for COc1ccc(C(C#N)(CCC#N)CCC#N)cc1OC ?
E coli growth: 0.697; LANA-H2B inh: 6.0; HNF4A DNA FP: -1.4; UCH37 inh: 2.2; B2AR ag: 3.8; ALR H2O2 inh: -9.7

How did CCN(C(=O)COC(=O)CSc1ccc(C(N)=O)cc1[N+](=O)[O-])C1CCCCC1 do in these assays?
E coli growth: 0.725; LANA-H2B inh: -1.9; HNF4A DNA FP: 4.1; UCH37 inh: 4.2; B2AR ag: 4.2; ALR H2O2 inh: -1.9; FGF22 binding: inactive

How did CCC(=O)Nc1nnc(/C=C/c2ccc(OC)cc2)s1 do in these assays?
E coli growth: 0.681; LANA-H2B inh: -3.5; HNF4A DNA FP: 4.5; UCH37 inh: -112.0; B2AR ag: -3.2; ALR H2O2 inh: -10.5; FGF22 binding: inactive

What do the screens show for `CCOC(=O)N1CCN(CC(=O)c2c(C)[nH]c3ccccc23)CC1`?
E coli growth: 0.79; LANA-H2B inh: 0.4; HNF4A DNA FP: 0.3; UCH37 inh: 3.4; B2AR ag: 1.5; ALR H2O2 inh: -13.0

Results for Cc1ccc(SCc2cc(=O)[nH]c(/N=C(\N)Nc3cccc4ccccc34)n2)cc1 ?
LANA-H2B inh: 1.7; HNF4A DNA FP: 0.2; B2AR ag: 16.2; ALR H2O2 inh: -2.1; FGF22 binding: inactive

Results for Cn1c(NCCCN2CCOCC2)nc2c1c(=O)n(Cc1ccc(Cl)c(Cl)c1)c(=O)n2C ?
E coli growth: 0.686; LANA-H2B inh: 6.3; HNF4A DNA FP: 3.0; UCH37 inh: 4.6; B2AR ag: -2.2; ALR H2O2 inh: -8.4

How did CC(=O)Nc1ccc(S(=O)(=O)NCC(=O)OCC(=O)NC23CC4CC(CC(C4)C2)C3)cc1 do in these assays?
E coli growth: 0.681; LANA-H2B inh: 6.6; HNF4A DNA FP: 2.4; UCH37 inh: 1.4; B2AR ag: 4.9; ALR H2O2 inh: 8.2

How did CC1(C)OC(=O)N(c2ccccc2)C12C=Cc1c(ccc3ccccc13)O2 (centres undefined) do in these assays?
E coli growth: 0.704; LANA-H2B inh: 4.1; HNF4A DNA FP: -0.4; UCH37 inh: 0.8; B2AR ag: 1.2; ALR H2O2 inh: -2.4

How did Cc1ccc(N2C(=O)C(c3c(C)[nH]n(-c4ccccc4)c3=O)(C(F)(F)F)C3=C2CC(C)(C)CC3=O)cc1 (centres undefined) do in these assays?
E coli growth: 0.7; LANA-H2B inh: -1.6; HNF4A DNA FP: -1.0; UCH37 inh: 1.5; B2AR ag: 6.0; ALR H2O2 inh: 8.9

How did COc1cc(CN2CCCC(N3CCN(c4ccc(F)cc4)CC3)C2)ccc1F (centres undefined) do in these assays?
E coli growth: 0.7; LANA-H2B inh: 4.7; HNF4A DNA FP: 0.5; UCH37 inh: 4.6; B2AR ag: 4.7; FGF22 binding: inactive

How did N#Cc1cccc(CN2CCC(=O)N(CCO)CC2)c1 do in these assays?
E coli growth: 0.64; LANA-H2B inh: -1.3; HNF4A DNA FP: 2.3; UCH37 inh: 2.9; B2AR ag: 2.8; ALR H2O2 inh: 2.3; FGF22 binding: inactive

Results for O=C(NCC1CCCO1)C(c1cccs1)N(Cc1cccs1)C(=O)c1ccc(-c2ccccc2)[nH]1 (centres undefined) ?
E coli growth: 0.715; LANA-H2B inh: -0.3; HNF4A DNA FP: -1.8; UCH37 inh: 1.0; B2AR ag: 0.4; ALR H2O2 inh: -1.2; FGF22 binding: inactive

What do the screens show for `O=C(NCCc1nnc2ccc(SCC(=O)N3CCCC3)nn12)c1ccccc1`?
E coli growth: 0.701; LANA-H2B inh: 1.6; HNF4A DNA FP: 3.1; UCH37 inh: 0.6; B2AR ag: -4.0; ALR H2O2 inh: 3.2; FGF22 binding: inactive

How did Cc1ccc(S(=O)(=O)Nc2ccncc2)c(C)c1N(C)S(=O)(=O)c1ccc(Cl)cc1 do in these assays?
E coli growth: 0.685; LANA-H2B inh: -1.0; HNF4A DNA FP: -3.8; UCH37 inh: -0.5; B2AR ag: 7.6; ALR H2O2 inh: 0.2; FGF22 binding: inactive

Not all compounds are listed; the hit share may differ from the screen's.
